# High-throughput results from PubChem.
# HIV Env fusion: blocks HIV Env-driven cell-cell fusion; AID 651610; HeLa-JRFL Env/CEM21 cell fusion, luciferase; inhibition, % at 12.3 µM; actives 1.1% (n = 360,000);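 active = mean replicate inhibition score of at least 50 and every replicate individually at or above 50; inconclusive = only one of the two criteria met; inactive = mean below 50 and not all replicates reaching 50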;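 also: 0% = plate neutral controls and 100% = maraviroc near 300 nM; one replicate is shown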
# eIF4H inh: inhibitors of RNA binding by human eIF4H | Q15056 | eIF4H fluorescence polarization binding assay | inhibition, % at 35 µM | actives 0.94% (n = 290,000);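 active = 50% or more with normal probe brightness, or confirmed in later tests; inconclusive = above 50% with abnormal brightness, or retests that disagree; inactive = below 50% or failed in later tests; about a fifth of its hits are not listed in these tables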;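 also: calls also rest on retests at 20 µM and on dose response follow-up; 0% = protein and probe with vehicle and 100% = probe without protein; strong numbers were not always called active; many hits fall short of the cut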
# Yeast UUG start: alters start codon recognition fidelity in yeast; S. cerevisiae UUG-firefly luciferase reporter, luminescence/redox ratio; activity score, % at 18.7 µM; actives 0.13% (n = 350,000);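 active = replicate mean at a twofold rise or more, about +100% in these data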;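 also: firefly luciferase made from a UUG start codon reports start codon fidelity; reporter light over untreated wells divided by growth signal over untreated wells; some hits fall short of that in this replicate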
# PABP polyA inh: PABP-poly(A) binding inhibition | P11940 | PABP-poly(A) RNA binding, fluorescence polarization | inhibition, % at 35 µM | actives 1% (n = 290,000) | AID 2014;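 active = 50% or more with normal probe brightness, or confirmed in later tests; inconclusive = above 50% with abnormal brightness, or retests that disagree; inactive = below 50% or failed in later tests; about a fifth of its hits are not listed in these tables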;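 also: calls also rest on retests at 20 µM and on dose response follow-up; controls were probe without protein and protein plus probe with vehicle; some compounds called inactive have numbers as strong as hits; many hits fall short of the cut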
# Target sequence (P11940 whole entry, looked up): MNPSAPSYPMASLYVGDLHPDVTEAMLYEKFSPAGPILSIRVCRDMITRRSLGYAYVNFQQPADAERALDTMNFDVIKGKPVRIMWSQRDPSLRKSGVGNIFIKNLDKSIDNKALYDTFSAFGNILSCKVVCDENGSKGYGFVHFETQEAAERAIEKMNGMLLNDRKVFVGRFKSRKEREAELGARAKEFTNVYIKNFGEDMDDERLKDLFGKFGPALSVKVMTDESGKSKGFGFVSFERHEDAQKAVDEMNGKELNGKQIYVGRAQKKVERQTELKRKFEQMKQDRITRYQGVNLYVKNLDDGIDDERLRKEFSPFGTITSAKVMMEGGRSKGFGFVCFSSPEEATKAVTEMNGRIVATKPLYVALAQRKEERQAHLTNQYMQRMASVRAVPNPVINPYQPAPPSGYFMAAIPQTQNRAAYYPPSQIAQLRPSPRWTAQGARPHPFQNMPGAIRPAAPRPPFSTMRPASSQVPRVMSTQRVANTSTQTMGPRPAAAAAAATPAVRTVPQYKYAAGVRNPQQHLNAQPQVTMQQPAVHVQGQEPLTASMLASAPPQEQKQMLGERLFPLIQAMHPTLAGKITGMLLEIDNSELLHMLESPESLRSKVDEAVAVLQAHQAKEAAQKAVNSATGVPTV
# CSC inhib: cancer stem cell inhibition; actives 1.1% (n = 300,000); inhibition, % at 7.5 µM; cancer stem cell-like cells viability, luminescence;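 active = mean at 75% or more and at least half the replicates too; inconclusive = mean and replicates disagree; tested in HMLE shEcad cells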;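 also: 0% = median of negative and 100% = median of positive control wells; the first replicate is given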
# Rce1 inh: inhibitors of yeast Ras-converting enzyme | Q03530 | yeast membranes, quenched prenylated peptide cleavage fluorescence | actives 0.27% (n = 290,000) | calls only;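 active = fall in fluorescence gain of 50% or more versus controls, with final raw signal at or below 3038400; inconclusive = same 50% fall but final raw signal above 3038400; inactive = fall in fluorescence gain under 50%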;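 also: plate controls were neutral control wells for no effect and wells lacking membranes for full effect; tested at 10 µM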
# Target sequence (Q03530 whole entry, looked up): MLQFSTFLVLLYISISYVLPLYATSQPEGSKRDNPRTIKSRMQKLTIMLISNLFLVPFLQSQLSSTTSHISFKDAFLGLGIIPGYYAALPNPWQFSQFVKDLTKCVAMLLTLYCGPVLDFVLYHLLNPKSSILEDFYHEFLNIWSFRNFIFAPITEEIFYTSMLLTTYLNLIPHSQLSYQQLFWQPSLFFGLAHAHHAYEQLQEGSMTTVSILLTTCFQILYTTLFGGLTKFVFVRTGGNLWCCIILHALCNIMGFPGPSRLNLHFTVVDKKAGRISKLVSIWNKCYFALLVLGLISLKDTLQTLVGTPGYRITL
# MT1-MMP act inh: inhibitors of human MT1-MMP activation. P50281. HT1080 RFP-PRO-GFP cells, GFP/RFP ratio fluorescence, overnight; percent of plate control window, DMSO zero. GFP/RFP ratio change, % at 20 µM. actives 0.061% (n = 360,000). AID 651647;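 active = GFP/RFP ratio change of at least 30% with cell ATP level not reduced by more than half and red fluorescence within 50% of control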; also: strong numbers were not always called active
#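 Test system: HT1080 RFP-PRO-GFP cells; Benchmarks: DMSO and RFP-L50D-GFP cell wells; Timing: cells overnight before dosing, compound overnight, 37 °C, 5% CO2; Compound: one 20 µM compound dose with 1% DMSO; Read-out: GFP/RFP fluorescence ratio.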
# MT1-MMP act inh RFP: second read-out of MT1-MMP act inh, no call of its own (marks repeat the call); RFP signal change, %; measured here: RFP expression control read;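 0 = vehicle wells; hits needed this value within 50% of zero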
# Starred values were filed as active, the others as inactive; i = inactive; ? = inconclusive; . = not tested or not shown; & = joins results of further samples; [ ] = remark or other dose.
compound	HIV Env fusion	eIF4H inh	Yeast UUG start	PABP polyA inh	CSC inhib	Rce1 inh	MT1-MMP act inh	MT1-MMP act inh RFP
O=C(O)c1cc(-c2ccccc2)n(-c2ccc(Cl)cc2)n1	-4.3	2.7	.	1.7	1.8	i	0.6	3.1
COC(=O)c1ccccc1NC(=O)c1sc(=S)n(C)c1N	-232.3	-11.6	-14.7	-11.0	-1.5	.	-5.4	-3.2
CN(C)CCN1CCN(C2CN(CCc3ccccc3)S(=O)(=O)C2)CC1 (centres undefined)	17.2	.	-13.3	.	.	.	1.3	1.7
COC(=O)c1ccc2nc(NC(=O)C(C)(C)C)sc2c1	-47.3	-2.2	.	-0.6	-3.1	i	-6.0	-22.7
COc1ccc2[nH]c(C(=O)Nc3cccc(C)n3)cc2c1	-132.1	-6.6	-46.4	-3.4	4.9	i	-6.4	-9.6
O=C(NNC(=O)c1cc2cc(OC(F)(F)F)ccc2[nH]1)c1cccc(C(F)(F)F)c1	11.9	-3.6	.	-10.3	4.5	i	-1.9	-7.3
O=C(CSc1ncnc2ccccc12)NC1CCS(=O)(=O)C1 (centres undefined)	-8.7	.	-8.8	.	-0.9	.	-0.9	-1.4
O=C(Cn1nc(C(F)F)cc1C1CC1)N1CCCC1	-13.3	-0.8	-6.5	-5.4	-3.2	i	-0.4	3.7
COc1ccc(NC(=O)c2cc(S(=O)(=O)N3CCS(=O)(=O)CC3)ccc2Cl)cc1	.	-5.5	-14.6	11.1	-10.1	i	1.7	0.6
COc1cc(C)ccc1OCC(=O)NCC1CCCO1 (centres undefined)	10.3	.	-7.8	.	3.1	.	-2.6	-0.3
COC(=O)CN(c1nc(C)c(Br)c(OC)n1)S(=O)(=O)c1ccc(C)cc1	16.3	-4.4	2.0	7.5	9.1	i	-1.1	-9.2
OC1CCCN(CC(O)COC(c2ccccc2)c2ccccc2)C1 (centres undefined)	13.3	0.9	-14.3	3.3	-8.5	i	-0.6	3.9
Cn1c(CSCc2ccc(F)cc2)n[nH]c1=S	7.8	5.1	-19.9	2.5	-20.4	i	-1.8	-0.4
COc1ccc(CNS(=O)(=O)c2ccc(S(=O)(=O)N3CCCCC3)cc2)cc1	?	-0.3	-6.8	-1.3	5.3	i	2.6	-5.2
Cc1cc2c(cc1S(=O)(=O)CCC(=O)NCCc1ccccc1)OCC(=O)N2	-20.0	1.4	-9.0	8.2	5.2	i	2.7	5.5
N#Cc1ccsc1NC(=O)c1ccc2ncsc2c1	-12.6	.	-11.4	.	.	.	-24.0	2.5
Cc1cc2ccccn2c1C(=O)c1ccncc1	8.5	9.2	-17.9	14.8	-1.7	i	7.1	1.7
Cc1ccc(Nc2nc(CSc3nnc(-c4ccncc4)n3C)cs2)cc1	-5.8	1.0	-65.0	11.6	-3.5	i	-8.6	-10.4
Cc1cccc(NC(=O)CCCc2ccccc2)c1	-28.8	-1.0	-2.1	-9.2	1.0	i	0.6	2.5
CCc1cccc(CC)c1NC(=O)COC(=O)c1cccc(S(=O)(=O)N2CCc3ccccc3C2)c1	22.6	-5.7	.	3.0	12.5	i	0.5	3.6
COc1ccc(-c2nc(SC(C)C(=O)NC3CC3)n[nH]2)cc1 (centres undefined)	3.4	.	-16.1	.	.	.	1.7	-1.7
COc1ccc(/C=N/NC(=O)Cn2cnc3ccccc3c2=O)cc1	-3.1	-10.4	-6.9	-12.3	-11.2	i	5.1	-0.5
CN(C)CCCNc1ccc(-c2n[nH]c(=O)c3ccccc23)cc1[N+](=O)[O-]	9.0	-8.5	-5.0	-19.4	-1.8	i	1.1	0.2
CC(=O)Nc1ccc2c(c1)c1ccccc1n2C(C)=O	-13.9	-7.2	.	3.5	17.9	i	-1.4	-2.8
O=C(NCc1ccccn1)Nc1ccc2c(c1)OCO2	-17.7	-3.2	-15.4	-12.3	9.3	i	2.4	3.4
C[C@@H]1CN([C@H](C)CO)C(=O)CCCn2cc(nn2)CO[C@H]1CN(C)C(=O)c1ccncc1	-0.9	.	-3.0&-6.7	.	.	.	4.7	1.6
CC(C)(C)NC(=O)CSc1nnc(NC(=O)CCc2ccccc2)s1	1.6	2.5	-10.8	-1.7	-9.5	i	-0.5	-2.5
CCOC(=O)C1CCN(CC(O)COCc2cccs2)CC1 (centres undefined)	9.0	11.7	-12.6	-7.2	-14.3	i	-0.2	1.4
COc1ccc(CNC(=O)N2CCN(c3ccc(F)cc3)CC2)cc1	-32.6	4.1	-4.3	6.8	7.9	i	1.7	-0.5
CC(NC(=O)Cc1ccccc1)c1ccc(F)cc1 (centres undefined)	-5.0	4.3	.	2.2	7.9	i	5.9	5.1
Cc1ccc(C(c2sc3nc(C)nn3c2O)N2CCN(c3ccccc3)CC2)cc1 (centres undefined)	-4.4	-0.2	-20.2	-3.3	-13.3	i	-3.1	0.0
CCc1ccc(CN(C)C(=O)c2cc(COc3ccc(-n4cncn4)cc3)on2)cc1	9.4	-15.0	-3.5	-3.1	-5.9	i	1.5	-10.4
C/C(CC(=O)Nc1cccc(Cl)c1C)=N\NC(=O)Cc1csc(N)n1	2.3	-9.5	-21.9	-11.0	0.3	i	1.5	4.6
O=C(Nc1ccc(Cl)c(Cl)c1)N1CCSCC1	-114.2	6.4	-24.7	-3.3	3.3	i	2.0	-0.4
COc1ccccc1NC(=O)N(C)C[C@@H]1OCc2cnnn2CCCC(=O)N([C@@H](C)CO)C[C@H]1C	7.6[16.7 µM]	.	-5.3&9.8&-4.9	.	.	.	2.6	3.9
CCc1nnc(SCC(=O)NC2CCCCC2)nc1CC	-79.5	-2.2	-13.1	16.2	.	i	-3.6	0.0
O=C(N/N=C/c1ccc2ncccc2c1)c1ccco1	-24.4	-1.2	.	-9.9	2.1	i	3.4	3.3
COc1ccc(Oc2nc3c(c(=O)n(C)c(=O)n3C)n2C)cc1	?	-3.3	7.9	-1.7	-14.7	i	-4.5	0.1
CCN(CC)CCCn1c2c(c(SCC(=O)Nc3nccs3)nc1=O)CCC2	-3.6	.	-2.7	.	3.9	i	-1.1	2.6
Cc1ccccc1N1OC2C(=O)N(c3ccc(F)cc3)C(=O)C2C1c1ccccn1 (centres undefined)	.	-15.5	4.7	3.0	-4.4	i	10.5	1.6
O=C(COc1ccccc1Cl)NC(=S)N1CCc2ccccc21	.	-3.2	.	-7.7	-5.5	i	8.7	2.2
CC1CC2=C(CC1/C=N/NC(N)=S)C(C)(C)CCC2 (centres undefined)	.	19.9	-31.7	4.2	44.5	i	-20.3	-12.9
O=C(c1ccc(Cl)cc1)[C@@H]1[C@@H]2C(=O)N(c3ccc(Cl)cc3)C(=O)[C@@H]2C2c3ccccc3C=NN21 (some centres undefined)	-13.4	?	.	1.9	30.5	i	-8.2	6.1
CC(=O)Oc1ccc(C(=O)Nc2cccc(C(=O)NC(C)(C)C)c2)cc1	10.3	-1.3	.	-1.7	-13.7	i	-6.3	0.8
CC(C)=CCCC(C)CN1CCC(n2nccc2NC(=O)C2CCCC2)CC1 (centres undefined)	-22.7	-13.0	-5.1	-3.1	-11.1	i	0.3	-1.2
c1ccc2c(Nc3ccc4c(c3)OCCO4)c3c(nc2c1)CCC3	20.7	-2.4	.	-17.7	8.8	i	3.1	0.5
CC1CCCCC12NC(=O)N(CC(=O)Nc1sccc1C(N)=O)C2=O (centres undefined)	-8.4	.	-18.2	.	-4.4	.	-3.7	0.1
COc1ccccc1C(=O)N1CCN(c2nc3cc(C)cc(C)c3cc2C#N)CC1	-65.5	.	-1.3	.	.	.	2.6	0.3
Cc1ccc(CNC(=O)CCNC(=O)N2CCn3c2nc2ccccc23)cc1	-2.1	-10.7	-21.8	-3.6	-7.5	i	3.1	4.9
N#Cc1c(-c2ccccc2)cc(C2CC2)nc1SCC(=O)O	13.9	-6.6	11.6	3.1	.	i	-1.0	0.8
CCn1c(O)c(N=NC(=S)NCC2CCCO2)c2ccccc21 (centres undefined)	10.4	-4.4	.	6.7	6.6	i	8.7	3.8
ONC(=Nc1ccccc1Cl)c1ccccc1Cl	11.3	-7.8	-18.4	2.1	-8.4	i	-2.9	-0.2
C[C@H](CO)N1C[C@H](C)[C@@H](CN(C)S(=O)(=O)c2cccs2)Oc2c(NC(=O)c3ccncc3)cccc2C1=O	-6.1	.	-7.7&-16.7	.	-4.5	.	-1.2	2.9
CCOc1ccccc1CNC(=O)C1Cc2cc(S(=O)(=O)N3CCCCC3)ccc2N1C(C)=O (centres undefined)	0.5	7.0	-16.6	-1.9	0.6	i	0.1	-1.8
CCOc1cc(C2C(C(=O)OCC(C)C)=C(C)N=C3SCCC(=O)N32)ccc1OC(C)=O (centres undefined)	6.6	-7.5	-10.9	-6.4	-4.7	i	0.7	-0.5
Cc1ccc(N(CC(=O)NC2CCCC2)C(=O)CCCC(=O)Nc2ccccn2)cc1C	.	7.2	5.2	-1.4	-6.3	.	-2.3	1.0
CCN(CC)C1=N/C(=C\c2ccco2)C(=O)N1c1ccccc1	-6.1	42.7	-1.0	15.2	-15.8	i	-14.5	0.5
CCOc1ccc(CCNC(=O)c2nnc(Cc3ccc(F)cc3)o2)cc1OCC	-19.0	5.5	-10.5	8.4	-10.5	i	3.8	4.2
COc1cc2nc(SCC(=O)c3ccc(Br)cc3)n3nc(C)nc3c2cc1OC	.	6.6	-11.1	-4.5	-14.8	i	-1.5	-1.4
Cc1c(Cl)c(-c2n[nH]c(=S)n2-c2ccc(F)cc2)nn1C	.	-4.3	-6.8	-9.8	2.7	i	-6.2	-2.0

# (listing goes on)
compound	HIV Env fusion	eIF4H inh	Yeast UUG start	PABP polyA inh	CSC inhib	Rce1 inh	MT1-MMP act inh	MT1-MMP act inh RFP
CCOC(=O)c1[nH]c2ccccc2c1NC(=O)CCN1CCN(C(=O)OCC)CC1	-192.4	-3.8	-5.7	-6.4	17.8	i	9.7	5.9
Cc1ccccc1Nc1nnc(SCC(=O)c2ccc(O)cc2O)s1	-8.5	3.1	-25.7	15.3	25.7	i	2.4	4.0
CC(C)(CNS(C)(=O)=O)SCc1ccc(Cl)cc1	9.3	6.4	.	-4.7	-14.0	i	1.6	1.5
COC(=O)c1ccc(NC(=O)CSCc2ccccc2)cc1	.	0.6	-7.0	-9.4	-7.2	i	-7.8	-6.0
O=C1/C(=C\c2ccc(Br)cc2)SC(=S)N1NS(=O)(=O)c1ccccc1	-2.5	8.8	-12.9	9.1	.	i	2.5	5.8
CCCCCCn1c(N2CCC(C(N)=O)CC2)nc2c1c(=O)n(C)c(=O)n2C	-383.6	2.4	1.8	-8.4	-5.3	i	0.3	-7.4
CCCC(C(=O)NC1CCCC1)N(CC1CCCO1)C(=O)CNS(=O)(=O)c1ccccc1 (centres undefined)	9.4	-15.6	-36.7	3.9	-14.2	i	-2.1	-0.8
COc1ccc(CNC(=O)COc2cccnc2[N+](=O)[O-])cc1OC	4.5	-8.2	-1.3	1.8	-7.0	i	1.5	2.3
Cc1cc(C)c(C(N)=O)c(NCCc2ccccc2)n1	-5.1	-1.7	-13.3	2.9	0.8	i	0.9	0.8
COc1ccc(N(CC(=O)NC2CCCCCC2)S(=O)(=O)c2ccc(C)cc2)cc1OC	.	-1.0	-11.9	-7.1	-7.7	.	-3.4	-0.3
